Compound activity from PubChem BioAssay.
MARV entry inh: blocks Marburg virus binding to or entry into cells; Potency, µM (highest dose often 37.8 µM), for inactives: at the top dose activity change, negative = inhibition, usual class: inhibitors; AID 540276; Marburg virus pseudotyped entry inhibition, cell reporter; control for the full effect not named in the record; about a third of the inactives were read at about 46 µM; hit rate 1.8% among 300,000; active = well fitted inhibition curve with a large enough effect; inconclusive = small, poorly fitted or top-dose-only effect, or effect the other way; inactive = flat fitted curve, though single readings scatter; tested in HEK293 cells; about a fifth of its hits are not listed in these tables; further: on the % scale 0 is the no-effect control and ±100 the full control effect; luciferase read-out
StopGo reporter: lowers the luciferase signal of an FMDV 2A StopGo reporter; AID 1159524; Potency, µM (titrated, usually from 57.9 µM), for inactives: top-dose signal change, negative = less light; human cells with a luciferase reporter of 2A StopGo recoding; control for the full effect not named in the record; hit rate 1.2% among 410,000; active = well fitted falling curve with a large enough effect; inconclusive = small, poorly fitted or top-dose-only effect; inactive = no such curve, though single readings can be large or run the other way; tested in HEK293T cells; further: on the % scale 0 is the no-effect control and ±100 the full control effect; nearly all actives have a fitted effect of over 45% in size; luciferase light after 4 h
RE007 growth inh: less growth of the S. pombe RE007 Vpr strain | S. pombe RE007 Vpr strain, BacTiter-Glo ATP luminescence, 24 h; control for the full effect not named in the record | AID 651644 | hit rate 0.21% among 360,000 | Potency, µM (titrated, usually from 92.2 µM), for the others: at the top dose activity change, negative = less growth; active = well fitted falling curve with a large enough effect; inconclusive = small, poorly fitted or top-dose-only effect; inactive = no such curve, though single readings can be large or run the other way;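 further: on the % scale 0 is the no-effect control and ±100 the full control effect; nearly all actives have a fitted effect of over 50% in size; the assay follows cell death caused by Vpr and the record does not say whether a fall means rescue or toxicity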
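Fission yeast strain RE007, carrying one chromosomally integrated HIV-1 vpr copy, was seeded at OD 0.01 in PMG+AL medium with 23 nL pinned compound. After 24 h at 30 °C and 99% humidity, viability was read by BacTiter-Glo luminescence.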
LASV entry inh: Lassa virus entry inhibition; Lassa virus pseudotype entry inhibition, cell reporter; control for the full effect not named in the record; Potency, µM (titrated, usually from 37.9 µM), without a hit: top-dose activity change, negative = inhibition, actives largely listed as inhibitors; hit rate 1.2% among 300,000; AID 540256; active means well fitted inhibition curve with a large enough effect; inconclusive means small, poorly fitted or top-dose-only effect, or effect the other way; inactive means flat fitted curve, though single readings scatter; tested in HEK293 cells; further: on the % scale 0 is the no-effect control and ±100 the full control effect; nearly all actives have a fitted effect of over 50% in size; luciferase read-out
NS1 function inh: blocks influenza NS1 protein function. S. cerevisiae slowed by influenza A NS1, growth recovery by OD600. Potency, µM (top dose mostly 46.1 µM), for the others: at the highest dose activity, positive = more growth. hit rate 0.4% among 270,000; further: actives are rising curves; nearly all actives have a fitted effect of over 50% in size
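Read-out: OD600 growth recovery of NS1-expressing budding yeast. Cells grown overnight at 30C in -URA glucose medium, washed, resuspended and diluted 1:100 in 2% galactose assay medium, pH 6.0. Same strain lacking NS1 served as positive control.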
SARS PLP yeast: blocks SARS-CoV papain-like protease in a yeast assay. AID 485353. hit rate 0.19% among 330,000. S. cerevisiae expressing SARS-CoV PLpro, growth rescue; control for the full effect not named in the record. Potency, µM (highest dose often 32.9 µM), without a hit: top-dose activity, positive = growth rescue; further: 0% is about no effect; nearly all actives have a fitted effect of over 55% in size; growth read by luminescence after 48 h
Cruzain inh Det: inhibitors of Trypanosoma cruzi cruzain with detergent | purified cruzain, Z-FR-AMC fluorescence, 0.01% Triton | Potency, µM, for the others: max response, negative = inhibition, actives largely listed as inhibitors | hit rate 0.43% among 200,000 | AID 1478; active means well fitted curve in the direction sought with a large enough effect; inconclusive means small, poorly fitted or top-dose-only effect, or another doubt; inactive means no such curve, though single readings can be large; an effect the other way counts as inactive or inconclusive;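 further: plate controls were neutral wells for no effect and buffer without enzyme for full effect; nearly all actives have a fitted effect of over 40% in size; top concentration of the series not given in the record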
Target sequence (P25779 123-467 limits assumed): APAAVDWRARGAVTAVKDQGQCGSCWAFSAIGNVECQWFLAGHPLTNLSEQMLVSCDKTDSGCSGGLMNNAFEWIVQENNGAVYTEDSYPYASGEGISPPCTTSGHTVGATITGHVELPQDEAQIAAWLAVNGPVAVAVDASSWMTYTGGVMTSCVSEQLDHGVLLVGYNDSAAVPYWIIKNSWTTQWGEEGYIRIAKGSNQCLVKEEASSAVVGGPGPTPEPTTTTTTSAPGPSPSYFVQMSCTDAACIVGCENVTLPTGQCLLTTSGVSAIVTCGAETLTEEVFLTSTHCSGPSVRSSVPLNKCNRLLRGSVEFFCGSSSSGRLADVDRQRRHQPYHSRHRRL
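Enzyme 1.5 nM, Z-FR-AMC 2 uM, NaOAc 100 mM pH 5.5, DTT 5 mM, Triton X-100 0.01%; 15 min RT compound preincubation; kinetic ex360/em450, 60 s delta.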
Cruzain inh noDet: blocks cruzain activity in detergent-free assay | P25779 | purified cruzain, Z-FR-AMC fluorescence, no detergent | Potency, µM, for inactives: max response, negative = inhibition, hits mostly inhibitors | hit rate 2.3% among 200,000; active means well fitted curve in the direction sought with a large enough effect; inconclusive means small, poorly fitted or top-dose-only effect, or another doubt; inactive means no such curve, though single readings can be large; an effect the other way counts as inactive or inconclusive;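 further: plate controls were enzyme without inhibitor for no effect and buffer without enzyme for full effect; nearly all actives have a fitted effect of over 40% in size; top concentration of the series not given in the record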
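Purified cruzain at 1.5 nM, pre-incubated 15 min with compound at room temperature in 100 mM sodium acetate pH 5.5, 5 mM DTT, 0.00005% Triton X-100. Reaction started with 2 uM Z-FR-AMC; AMC fluorescence increase over 60 s gives rate.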
* = called active by the depositor; ? = inconclusive; · = not tested or not shown; & = joins results of further samples; [ ] = another dose, or the depositor's remark. Unless noted, the call rests on the fitted dose curve; in most records, active means well fitted rising curve with a large enough effect; inconclusive means small, poorly fitted or top-dose-only effect; inactive means no such curve, though single readings can be large or run the other way. Potency means the concentration at half of the fitted maximal effect.

SMILES | MARV entry inh | StopGo reporter | RE007 growth inh | LASV entry inh | NS1 function inh | SARS PLP yeast | Cruzain inh Det | Cruzain inh noDet
O=C(Nc1ccc(F)cc1F)NC1CCCc2ccccc21 (configuration not stated) | -16.4%[46.1 µM] | 3.7% | -12.7% | ? | 0.3% | -1.6% | · | ·
COc1ccc(N(CC(=O)NC2CCCCC2C)S(=O)(=O)c2c(C)nn(C)c2C)cc1 (configuration not stated) | · | -14.7% | -4.9% | · | 6.4% | -1.3% | · | ·
CCOC(=O)C1(CCCc2ccccc2)CCN(C2CCN(C(C)=O)CC2)CC1 | · | -23.8% | -10.1% | · | 1.8% | 1.4% | · | ·
CCOC(=O)N1CCN(S(=O)(=O)c2ccc(OCC)c(C)c2)CC1 | -18.5% | 0.0% | -1.9% | -18.3% | -9.4% | -1.9% | -0.9% | 5.6%
Cc1ccnc(NS(=O)(=O)c2ccc(NC(=O)Cc3ccccc3)cc2)n1 | ? | -13.3% | -4.5% | 24.1% | 12.9% | -16.2% | 0.8% | -6.5%
O=C(Nc1ccc(Cl)cc1)OCc1cn(-c2ccc(Cl)cc2)nn1 | 12.3% | 22.6% | -1.7% | 13.6% | -6.7% | -8.3% | 5.5% | ?
COc1cc(Cn2c(=O)oc3ccc(C)cc32)ccc1OCCC(C)C | -22.9%[46.1 µM] | -14.6% | · | 0.9%[46.1 µM] | · | · | -10.2% | 5.7%
CCCS(=O)(=O)c1nc(S(=O)(=O)c2ccc(Cl)cc2)c(N2CCC(O)CC2)s1 | -11.3%[46.1 µM] | 16.7% | -18.9% | 25.0%[46.1 µM] | 1.5% | -0.7% | · | ·
CN1N=C(C(C)(C)C)CSC1=Nc1ccc(F)cc1 | -2.2% | 8.1% | -3.2% | 9.6% | -3.8% | -0.4% | · | ·
CCOc1ccc(C2SCC(=O)Nc3c2c(=O)[nH]n3C2CCCCCC2)cc1 (configuration not stated) | -20.8% | -27.4% | 5.2% | -2.4% | -6.4% | -0.2% | 2.4% | 0.9%
COc1ccc(/C=C\c2onc(C)c2S(=O)(=O)N2CCC(C(=O)Nc3cccc(Cl)c3)CC2)cc1 | -0.7%[46.1 µM] | -27.3% | · | 20.5%[46.1 µM] | · | · | -3.3% | 7.94µM*
COc1ccc(S(=O)(=O)NCCc2csc(-c3cccc(F)c3)n2)cc1OC | · | 27.9% | · | 12.2%[46.1 µM] | · | · | -4.6% | 0.8%
CC(C)CC(=O)Nc1ccc(C(=O)CN2CCC(C)CC2)cc1 | 9.0%[46.1 µM] | -2.9% | -19.8% | -19.3% | · | -2.0% | · | ·
COc1ccc2c(CNC3CCCCCC3)c(C(=O)O)n(Cc3ccc(C)cc3)c2c1 | · | -16.3% | · | -14.4%[46.1 µM] | · | · | -5.4% | -3.4%
Fc1cccc(Cl)c1CSc1nnc2ccccn12 | ? | 76.0%[activator] | 11.2% | 5.8% | · | 1.9% | · | ·
Cc1ccc(C(=O)OCC(=O)Nc2c(C)n(C)n(-c3ccccc3)c2=O)cc1[N+](=O)[O-] | 10.5% | -5.5% | -5.9% | 16.1%[46.1 µM] | 7.2% | -1.4% | · | ·
O=C(Nc1ccc(-c2nc3ncccc3o2)cc1)c1ccc([N+](=O)[O-])o1 | -3.5%[46.1 µM] | 3.9% | -5.5% | 4.7%[46.1 µM] | -10.7% | -9.4% | · | ·
Cc1nnsc1C(=O)NC1CCCc2c1cnn2-c1ccc(C(C)(C)C)cc1 (configuration not stated) | · | ? | -0.6% | · | -63.4% | -6.0% | · | ·
Cc1ccc(C(=O)NCc2ccc3c(c2)OCO3)cc1Cl | 17.4% | 52.0%[activator] | 1.8% | -22.5% | -9.2% | -4.6% | · | ·
Cn1c(=O)cc(OCCCC(=O)N2CCN(Cc3ccc4c(c3)OCO4)CC2)c2ccccc21 | -4.0%&-19.3% | -23.9% | -1.6%[3.69 µM] | 2.2% | -14.8% | -6.8% | 3.0% | 4.3%
Cc1cc(C)cc(NS(=O)(=O)c2c(C(=O)N3CCCCCC3)c(C)n(C)c2C)c1 | 1.8%[46.1 µM] | 60.0%[activator] | 3.5% | 2.3%[46.1 µM] | -19.0% | 4.6% | · | ·
CC(=O)Nc1ccc(N/C=C/C(=O)c2ccccc2)cc1 | -12.3% | 84.4%[activator] | ? | ? | -3.5% | 0.3% | · | ·
COc1ccc(NC(=O)Cn2c(=O)n(CC(=O)NCc3ccco3)c(=O)c3ccccc32)cc1OC | -0.8% | 4.3% | 0.9% | 15.6% | -3.3% | 4.3% | 3.1% | 8.0%
CC(C)CNC(=O)CCCSc1nc2ccccc2[nH]1 | ? | -10.1% | 5.9% | -1.8%[46.1 µM] | · | 1.1% | · | ·
COc1cccc(CNc2ccc3c(c2)nc(C)n3C)c1OC | · | 1.5% | -25.6% | · | -15.8% | -1.7% | · | ·

Of the compounds above, these have an NH in an aromatic ring.
SMILES | MARV entry inh | StopGo reporter | RE007 growth inh | LASV entry inh | NS1 function inh | SARS PLP yeast | Cruzain inh Det | Cruzain inh noDet
CCOc1ccc(C2SCC(=O)Nc3c2c(=O)[nH]n3C2CCCCCC2)cc1 (configuration not stated) | -20.8% | -27.4% | 5.2% | -2.4% | -6.4% | -0.2% | 2.4% | 0.9%
CC(C)CNC(=O)CCCSc1nc2ccccc2[nH]1 | ? | -10.1% | 5.9% | -1.8%[46.1 µM] | · | 1.1% | · | ·

Next section:
SMILES | MARV entry inh | StopGo reporter | RE007 growth inh | LASV entry inh | NS1 function inh | SARS PLP yeast | Cruzain inh Det | Cruzain inh noDet
Cc1cc(C)nc(NC(=O)c2ccc(Cl)c(Cl)c2)n1 | -7.0%[46.1 µM] | -7.5% | -11.6% | 7.9% | 2.5% | 10.0% | 3.8% | -5.4%
CC(=O)NC(=S)Nc1ccc([N+](=O)[O-])cc1C | · | 9.4% | -16.6% | · | 1.0% | -1.4% | · | ·
Cc1ccc(S(=O)(=O)NCC(=O)OC(C)C(=O)Nc2ncc(Cl)cc2Cl)cc1 (configuration not stated) | -22.5% | 1.5% | 0.3% | 4.4% | 8.0% | -1.3% | ? | ?
O=C(COC(=O)c1c[nH]c(=O)[nH]c1=O)Nc1ccccc1 | ? | 8.7% | -2.3% | 7.6% | 5.0% | -0.4% | · | ·
Clc1ccc(-c2nn3c(-c4ccncc4)nnc3s2)c(Cl)c1 | -7.0% | · | · | · | -1.7% | 2.0% | 2.3% | -4.4%
CCCNC(=O)Cc1c(C)oc2ccccc12 | 3.4%[46.1 µM] | -3.2% | -2.0% | -17.2% | 2.3% | -3.1% | · | ·
CCCc1cc2c(cc1NC(=O)Cc1ccccc1)OCO2 | ? | -6.6% | 8.1% | -23.3%[46.1 µM] | · | · | · | ·
CC(C)(C)c1ccc(C(=O)N2CCC(c3nc(-c4ccc(S(=O)(=O)N5CCCC5)cc4)no3)CC2)cc1 | 2.5%[46.1 µM] | -15.4% | · | 12.5%[46.1 µM] | · | · | 2.7% | -3.8%
CC(C)CNc1nc(Oc2ccc(=O)n(C)n2)nc(N2CCOCC2)n1 | -1.4% | 3.6% | -0.6% | 0.7% | -3.8% | -7.1% | 4.4% | 2.5%
CC(C)c1nnc2n1N=C(c1ccc(Cl)cc1)CS2 | · | -15.4% | 6.5% | · | -19.3% | -3.6% | · | ·
CC(=O)N(Cc1cccnc1)c1nc2c(C)cc(C)cc2s1 | · | 4.1% | · | 1.4%[46.1 µM] | · | · | -9.7% | ?
COc1ccc(Cl)cc1S(=O)(=O)NC(C)C(=O)NCc1cccnc1 (configuration not stated) | 5.6%[46.1 µM] | 10.0% | 8.3% | · | -4.1% | -1.9% | · | ·
CCCN1C(=O)/C(=C/c2ccc(C)s2)SC1=Nc1ccc(OC)cc1 | 18.4% | -28.1% | -10.4% | ? | -13.4% | 10.0% | -1.3% | -17.0%
Cc1c(C(=O)N(CCC#N)c2ccccc2)sc2nc3n(c(=O)c12)CCCC3 | · | -10.7% | 9.1% | · | -6.5% | 5.9% | · | ·
CCOC(=O)c1c(C(C)(C)C)oc2ccc(O)cc12 | -15.2% | -17.3% | ? | -29.5% | -88.5% | -13.7% | -9.0% | -6.1%
CCC(CC)C(=O)Nc1nnc(SCc2cc(=O)c3ccccc3[nH]2)s1 | · | ? | · | -19.7%[46.1 µM] | · | · | 0.9% | ?
Cc1ccccc1NC(=O)CN1C(=O)C(C)(C)c2ccccc21 | · | -12.4% | · | ? | · | · | -1.1% | -4.6%
Nc1nc(/C=C/c2cccnc2)nc(-c2ccccc2O)n1 | ? | -14.4% | -9.9% | -27.0% | · | -6.6% | · | ·
COc1cccc(CNC(=O)c2cccc(-n3c(C)nc4cccnc43)c2C)c1 | · | -22.9% | · | -16.4%[46.1 µM] | · | · | -8.0% | 12.0%
O=C(NCCc1csc(-c2ccc(C(F)(F)F)cc2)n1)c1cccs1 | · | -14.6% | -29.0% | · | -4.7% | -21.3% | -11.1% | ?
Cc1ccc(-n2nnnc2SCC(=O)c2cc(C)n(-c3cc(C)on3)c2C)cc1 | 0.7%&2.1% | · | -7.6% | 11.6µM* | -11.9% | -9.2% | -5.6% | -26.6%
CCCCN(CCCC)C(=O)c1cc2c(=O)n3ccccc3nc2s1 | -10.4%[46.1 µM] | -2.0% | · | 19.3%[46.1 µM] | · | · | -20.2% | ?

Taken from above.
`CC(=O)NC(=S)Nc1ccc([N+](=O)[O-])cc1C` @ StopGo reporter = 9.4%
`COc1cccc(CNC(=O)c2cccc(-n3c(C)nc4cccnc43)c2C)c1` @ Cruzain inh noDet = 12.0%
`COc1cccc(CNc2ccc3c(c2)nc(C)n3C)c1OC` @ StopGo reporter = 1.5%
`O=C(COC(=O)c1c[nH]c(=O)[nH]c1=O)Nc1ccccc1` @ StopGo reporter = 8.7%
`Fc1cccc(Cl)c1CSc1nnc2ccccn12` @ LASV entry inh = 5.8%
